High-throughput results from PubChem BioAssay.
Tgondii IFNg – inhibitors of Toxoplasma gondii growth with IFN-gamma. Toxoplasma gondii growth in IFN-gamma-treated host cells; stronger effect = lower value; reference of the scale not given here. activity change, negative = inhibition, %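 (about 20 µM by stock and volumes)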. 69,000 tested, 3.8% active;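 active means below -70%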;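 further: host cells are HeLa cells infected with Toxoplasma gondii; parasite growth read as luciferase light; one replicate is shown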
* hit, by the source's call; i = inactive. Some of the compounds tested; the hit share may differ from the screen's.

compound | Tgondii IFNg
CCc1cc(=O)oc2cc(C)c(CN3CCCC(C)C3)c(O)c12 (stereo not given) | 10
COc1cccc(-c2ccc3n(c2=O)C[C@H]2[C@H](CO)[C@@H](C(=O)NCC4CC4)[C@@H]3N2S(C)(=O)=O)c1 | -3
Cc1ncsc1CCC(=O)NCc1csc(N2CCCC2)n1 | -45
COc1cc2cc(CNc3ccc(N4CCN(C)CC4)cc3)c(=O)[nH]c2cc1OC | -18
Cc1ccc(F)c(-c2cc(C(N)=O)ccn2)c1 | 3
O=c1[nH]c(-c2cccc(O)c2)nc2sc3c(c12)CCCC3 | 317
CC(C)C1N=C2c3ccccc3N=C(SCc3ccc(C(C)(C)C)cc3)N2C1=O (stereo not given) | -9
O=C(Cn1ncc2c(N3CCCCCC3)ncnc21)NC1CCCCCC1 | -33
C[C@H]1CN([C@@H](C)CO)C(=O)CCCn2cc(nn2)CO[C@H]1CN(C)Cc1ccccc1 | 19
CCOc1ccccc1NC(=O)N1CCC2(CC1)Nc1ccccc1-n1cccc12 | 24
COC(=O)[C@H]1CN(C(=O)CCc2c(C)noc2C)C[C@@H]1c1ccc(F)cc1 | -7
Cc1ccoc1C(=O)N1CCOCC2(CCN(c3ncccn3)C2)C1 (stereo not given) | 11
O=C(C[C@H]1COC[C@@H]2CN(Cc3ccoc3)C[C@@H]12)N1CCOCC1 | -5
COc1ccccc1NC(=O)N[C@@H]1CC[C@@H](CCNS(=O)(=O)c2ccc(Cl)cc2)O[C@H]1CO | -37
O=C(NC1(c2ccc(F)cc2)CCCC1)c1ccc2ncccc2c1 | 61

Going on with the list:
compound | Tgondii IFNg
CCN1C[C@@H](COC)[C@@]2(CCN(C(=O)c3cc4ccccc4s3)C2)C1 | 1
COc1ccc(-c2nc3c(s2)CN(C(=O)Nc2ccc(Br)cc2)CC3)cc1 | -93*
CC(c1ccc(-c2coc3ccccc3c2=O)cc1)N1CCOCC1 (stereo not given) | 110
O=C(CNS(=O)(=O)c1ccccc1)OCC(=O)c1ccc(Br)cc1 | 5
CN1C[C@H](NC(=O)Nc2ccccc2Oc2ccccc2)C[C@H]1CO | -7
CCc1nc(CN2C[C@H](N(C)C)C[C@H]2CO)c(C)[nH]1 | -26
CN(C)C(=O)n1c(C(=O)C2CC2)cc2c1c1ccccc1n2CC1CC1 | 37
CCOC(=O)CNS(=O)(=O)CCN1C(=O)c2ccccc2C1=O | -3
Cc1oc(C2CCN(C(=O)Cc3c(F)cccc3Cl)CC2)nc1C(=O)N(C)C | -60
Cn1nc(C2CC2)c2c1NC(=O)CC2c1ccc(CN2CCCCC2)s1 (stereo not given) | 66
Cc1cc(C(F)(F)F)nc(CNC(=O)c2cccc3ccnn23)n1 | 7
Cc1ccc(-c2nc(C)c(CCNC(=O)c3ccccc3)s2)cc1 | i
COc1cc(CN2CCCC(OCc3ccccn3)C2)cc2c1OCO2 (stereo not given) | 0
CCn1c(SCc2cccnc2)nnc1C1CCCN(S(C)(=O)=O)C1 (stereo not given) | -21
CC(C)CN1CCC2(CC1)CC1(CCN(C(=O)Nc3ccc(Cl)cc3)CC1)N(C)C2=O | 6

A section from further up, as a working copy:
compound | Tgondii IFNg
CCOc1ccccc1NC(=O)N1CCC2(CC1)Nc1ccccc1-n1cccc12 | 24
COC(=O)[C@H]1CN(C(=O)CCc2c(C)noc2C)C[C@@H]1c1ccc(F)cc1 | -7
Cc1ccoc1C(=O)N1CCOCC2(CCN(c3ncccn3)C2)C1 (stereo not given) | 11
O=C(C[C@H]1COC[C@@H]2CN(Cc3ccoc3)C[C@@H]12)N1CCOCC1 | -5
COc1ccccc1NC(=O)N[C@@H]1CC[C@@H](CCNS(=O)(=O)c2ccc(Cl)cc2)O[C@H]1CO | -37

(list continues)
compound | Tgondii IFNg
CC(C)COCC1CN(Cc2cnn(C)c2)Cc2ncn(C)c21 (stereo not given) | -4
COc1ccc(-n2c(CC#N)nnc2SCc2c(C)c(C)c(C)c(C)c2C)cc1 | -89*
CC(C)NC(=O)c1ccc2ccccc2n1 | 17
O=C(COc1ccccc1)NCc1nc2ccccc2[nH]1 | 17
CCn1c(CNS(=O)(=O)c2ccc3c(c2)OCO3)nc2ccccc21 | -34
Cc1cccc(NC(=O)C(C)C(=O)c2ccccc2)c1 (stereo not given) | 27
CN(C)c1ccc(NC(=O)CC2Nc3ccccc3NC2=O)cc1 (stereo not given) | 21
O=C(C1CN(S(=O)(=O)c2ccccc2)CC12CCOCC2)N1CCCC1 (stereo not given) | -1
COc1ccc(-c2ccc(SCC(=O)NCCc3c[nH]c4ccccc34)nn2)cc1OC | 4
CCN1CCn2c(-c3cccc(F)c3)cnc2C12CCN(c1ncccn1)CC2 | -30
FC(F)(F)c1cccc(-c2ccc(-c3cccc(C(F)(F)F)c3)o2)c1 | -11
Cc1ccc2[nH]c3c(=O)n(CC(=O)N4CCN(c5ncccn5)CC4)cnc3c2c1 | 10
CCOc1ccccc1C(=O)Nc1ccc(S(=O)(=O)Nc2cc(C)on2)cc1 | -28
O=C(c1cscn1)N1CCC(c2n[nH]c(=O)n2Cc2ccccc2)CC1 | 167
Cc1nc(-c2ccc(F)cc2)sc1CCNC(=O)c1ccc(C(C)(C)C)cc1 | -26

(listing goes on)
compound | Tgondii IFNg
COc1ccc(-c2nc3c(s2)CN(C(=O)Nc2cc(C)cc(C)c2)CC3)cc1 | -31
Cc1cc(C)n(-c2ccc(NCc3ccc(N4CCOCC4)cc3C)cc2)n1 | 19
c1cncc(Oc2ccccc2-n2cnnc2)c1 | 283
CCOC(=O)c1ncoc1-c1ccc(Cl)cc1Cl | -20
CCN1C(=O)N(CCc2ccccc2)C2(CCN(Cc3cccn3-c3ccc(Cl)cn3)CC2)C1=O | -23
O=C(c1ccc(=O)[nH]c1)N1CCC(CCn2cccn2)CC1 | 6
Cc1ccc(NC(=O)N2CCC(c3nc(C(=O)N4CCCC4)c(C)o3)CC2)cc1F | -55
CCOC(=O)C1(CC2CC2)CCN(C(=O)c2ccc(N3CCCCC3)cc2)CC1 | -37
Cc1ccc(Nc2nc(C(=O)NC3CCS(=O)(=O)C3)nc3ccccc23)cc1 (stereo not given) | 16
C=CCN1CC2CN(C(=O)c3csnn3)CCC2(c2ccccc2)C1 (stereo not given) | -21
Nc1nc(-c2cccs2)cc(C(F)(F)F)n1 | -43
CCOc1ccc(Oc2cc(C)nc(SC)n2)nn1 | -12
CN(CC1CCCCO1)C(=O)c1cn[nH]c1-c1cccc(F)c1 (stereo not given) | 3
O=C1c2c(O)cc(O)cc2O[C@H](c2cc(O)c(O)c(O)c2)[C@H]1O | 13
Cc1cccc(Cn2c(C)c(CNCCc3c[nH]c4ccccc34)c(C(=O)O)c2C)c1 | 12

Shown with each value named: entries from further up.
O=c1[nH]c(-c2cccc(O)c2)nc2sc3c(c12)CCCC3
  Tgondii IFNg: 317

CC(C)C1N=C2c3ccccc3N=C(SCc3ccc(C(C)(C)C)cc3)N2C1=O (stereo not given)
  Tgondii IFNg: -9

O=C(Cn1ncc2c(N3CCCCCC3)ncnc21)NC1CCCCCC1
  Tgondii IFNg: -33

C[C@H]1CN([C@@H](C)CO)C(=O)CCCn2cc(nn2)CO[C@H]1CN(C)Cc1ccccc1
  Tgondii IFNg: 19

(further entries)
compound | Tgondii IFNg
Cc1cccc(NC(=O)N2CCC[C@@]3(C(=O)N(C)C)CN(c4ccccn4)C[C@H]3C2)c1 | 3
Cc1noc(C)c1S(=O)(=O)N(C)C[C@@H]1Oc2c(NC(=O)c3ccc(-c4nccs4)cc3)cccc2C(=O)N([C@@H](C)CO)C[C@H]1C | -25
CCOC(=O)c1cccc(NC(=O)N2CCC3(CC2)Nc2cc(F)ccc2-n2cccc23)c1 | 351
Cn1nc(C(F)(F)F)cc1-c1ccc(NC(=O)Nc2cccc(C(F)(F)F)c2)s1 | -90*
O=C(NCc1ccco1)N1CCC2(CC1)Nc1cc(F)ccc1-n1cccc12 | 198
CCn1cc(S(=O)(=O)N(C)Cc2ccc3ncccc3c2)c(C)n1 | 176
CC(=O)Nc1nonc1NC(=O)COc1ccccc1 | 12
N#Cc1cnc(Sc2nnc(-c3ccncc3)o2)nc1N | 106
CS(=O)(=O)NCc1cnc2n1CCN(Cc1cccs1)CC2 | -50
COC(=O)[C@@H]1[C@@H](CO)[C@@H]2Cn3c(ccc(C4=CCCCC4)c3=O)[C@@H]2N1C(=O)c1ccccc1F | -17
Cc1cccc(-c2nc(C)c(CCNS(=O)(=O)c3cccs3)s2)c1 | i
CCOC(=O)[C@H](C)C[C@@H](Cc1ccc(-c2ccccc2)cc1)NC(=O)CCC(=O)O | 1
C[C@H](CO)N1C[C@H](C)[C@@H](CN(C)CC2CCCCC2)Oc2ccc(N(C)C)cc2C1=O | 5
CCc1ccc(C(=O)Nc2ccc(-c3nc(Cn4nc(C)cc4C)c(C)o3)cc2)cc1 | -61
CCn1c(CC2CCN(Cc3nc(C)ccc3O)CC2)n[nH]c1=O | 4

(more compounds)
compound | Tgondii IFNg
Cc1cnc(C(=O)N2CC[C@@H]3C[C@@H](C)O[C@H]3C2)cn1 | 2
CN1C(=O)c2cc(NC(=O)Nc3ccccc3F)ccc2OC[C@H]2O[C@@H](CC(=O)NCCc3ccncc3)CC[C@@H]21 | -20
c1cnc(-c2cc(NC3CCNCC3)nc3[nH]ccc23)cn1 | -19
Cc1csc(-c2cc(C(=O)NCCN3CCOCC3)cc(S(=O)(=O)N3CCOCC3)c2)c1 | -6
COc1ccc(S(=O)(=O)N(C)C[C@@H]2Oc3c(cccc3N(C)C)C(=O)N([C@H](C)CO)C[C@H]2C)cc1 | 2
CN(C)C1CCCN(C(=O)c2ccccc2Cc2ccc(Cl)cc2)CC1 (stereo not given) | 34
CC(=O)NCC(=O)N1CCc2ncnc(-c3ccsc3)c2CC1 | 73
COc1cccc(N(Cc2nc(-c3ccc(C)cc3)oc2C)S(=O)(=O)c2ccccc2)c1 | -52
Cc1ccccc1/C=C/c1c[nH]c2ccccc12 | 102
COc1ccc(CN(C)CCc2ccccn2)cc1OCc1ccccc1 | -2
CCOc1ccc(CC(=O)NCCc2csc(-c3cccc(F)c3)n2)cc1 | -1
O=S(=O)(c1ccccc1F)N1CCc2onc(COCC3CC3)c2C1 | -19
CN1C(=O)c2cc(NC(=O)Nc3ccccc3Cl)ccc2OC[C@@H]2O[C@@H](CC(=O)NCCCN3CCOCC3)CC[C@H]21 | -18
COc1ccc(C(=O)N2C[C@H]3CCCN(Cc4cccc(OC)c4F)[C@H]3C2)cc1 | 86
C[N+]1(C2CCC3CCCC2C3O)CCCCC1 (stereo not given) | -32

(listing goes on)
compound | Tgondii IFNg
CN(C)S(=O)(=O)N1C[C@H]2C[C@H](C(=O)NCc3ccccc3)[C@@H](C1)O2 | 2
CN1CCCC(c2cccc(CC3(C(=O)Nc4ccc5c(ccn5C)c4)CCOCC3)c2)C1 (stereo not given) | 35
CCc1ccc(NC(=O)c2c(O)c3ccccc3n(-c3ccccc3)c2=O)cc1 | 114
Cc1nc(-c2cnccn2)sc1C(=O)Nc1ccc(N2CCOCC2)cc1 | 36
CN(C[C@H]1N[C@@H](CO)[C@H]1c1ccc(-c2ccc(F)cc2)cc1)C(=O)C1CCC1 | -48
COc1ccc(CNC(=O)Cn2ncc3c(N4CCN(c5ccccc5)CC4)ncnc32)cc1 | -102*
CCCc1nc(NC(C(=O)N(C)C)c2ccccc2)c2cnn(C)c2n1 (stereo not given) | 5
C[C@H](CO)N1C[C@H](C)[C@H](CN(C)S(C)(=O)=O)Oc2ccc(NC(=O)NC3CCCCC3)cc2C1=O | 58
COc1ccccc1-c1ccc(CNC(C)c2nc3ccccc3n2C(C)C)cc1 (stereo not given) | -31
CN1c2ccc(Cl)cc2C(=O)NC12CCN(C(=O)Nc1ccc3c(c1)OCCO3)CC2 | 100
CCCc1[nH]ncc1C(=O)N1CCC2(CCCO2)CC1 | -11
Cc1nc2c(c(=O)[nH]1)CN(C(=O)c1cc(-c3ccc(C)o3)[nH]n1)CC2 | -34
CC(C)c1nnc(CN(C)C2CCCc3ccccc32)o1 (stereo not given) | 19
O=C(CSc1ncnc2nc[nH]c12)Nc1ccccc1C(F)(F)F | 6
Cc1nnnn1CCCN1CCCC1c1ccccn1 (stereo not given) | 3

(more compounds)
compound | Tgondii IFNg
CNC[C@@H]1Oc2c(NS(=O)(=O)c3ccc(Cl)cc3)cccc2C(=O)N([C@H](C)CO)C[C@H]1C | -15
CNC(=O)c1cc(=O)n(CC(=O)Nc2ccc3c(c2)OCO3)c2ccccc12 | -8
C[C@@H]1CN([C@H](C)CO)C(=O)Cc2cc(NC(=O)CCCCCC(=O)Nc3ccccc3N)ccc2O[C@@H]1CN(C)S(=O)(=O)c1cccs1 | 1
O=C(O)[C@H]1C[C@@H](O)CCN1Cc1ccc2c(c1)OCCO2 | 3
Cn1ccnc1-c1c(-c2ccc(F)cc2)cnn1CCNC(=O)C1OCCc2ccccc21 (stereo not given) | 1
CCCC#Cc1ccc([C@@H]2[C@H](C#N)N(C(=O)CN3CCOCC3)[C@H]2CO)cc1 | 11
CC(C)[C@H](NC(=O)[C@@H]1CSCN1C(=O)OC(C)(C)C)C(=O)NCC1CCC(C(=O)O)CC1 (stereo not given in full) | 6
CC1CCN(c2ncnc3c2cnn3CC(=O)NCc2ccccc2Cl)CC1 | -95*
Cc1ncc2c(c1CNC(=O)c1ccccc1F)CCN(C(=O)/C=C/c1ccc(F)c(F)c1)C2 | -47
Cc1cccc(-c2nc(CSc3nc4c(c(=O)[nH]3)CN(Cc3ccc(F)cc3)CC4)c(C)o2)c1 | -8
CN(C)c1ncccc1CNC(=O)Cc1ccc(O)c(Cl)c1 | -8
Cc1cccc(CO[C@@H]2CC[C@@H]3[C@H]2OCCN3c2ncc(F)cn2)n1 | 5
CCc1ccccc1NC(=O)c1nnn(Cc2nc(-c3cc(Br)ccc3OC)oc2C)c1C | 55
O=C1CSC(c2ccccc2)N1Cc1ccccc1 (stereo not given) | 0
Cc1cncc(C(=O)N2CC[C@@H]3[C@H]2CCN3S(C)(=O)=O)c1 | 11
